RE007 growth inh – less growth of the S. pombe RE007 Vpr strain | S. pombe RE007 Vpr strain, BacTiter-Glo ATP luminescence, 24 h; control for the full effect not named in the record | 360,000 tested, 0.21% active | Potency, µM (titrated, usually from 92.2 µM), without a hit: top-dose activity change, negative = less growth; active = well fitted falling curve with a large enough effect; inconclusive = small, poorly fitted or top-dose-only effect; inactive = no such curve, though single readings can be large or run the other way;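 also: % is scaled to controls: 0 for no effect and ±100 for the full control effect; nearly all actives have a fitted effect of over 50% in size; the assay follows cell death caused by Vpr and the record does not say whether a fall means rescue or toxicity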
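Fission yeast RE007 carrying one integrated HIV-1 vpr copy, seeded at OD 0.01 in PMG+AL medium with 23 nL pinned compound. Grown 24 h at 30 degrees; viability read by BacTiter-Glo luminescence after 5 min.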
SARS PLP yeast – inhibitors of SARS-CoV papain-like protease in yeast; S. cerevisiae expressing SARS-CoV PLpro, growth rescue; control for the full effect not named in the record; Potency, µM (top dose mostly 32.9 µM), inactives show top-dose activity, positive = growth rescue; 330,000 tested, 0.19% active; AID 485353; also: 0% is about no effect; nearly all actives have a fitted effect of over 55% in size; growth read by luminescence after 48 h
Cruzain inh noDet – blocks cruzain activity in detergent-free assay. purified cruzain, Z-FR-AMC fluorescence, no detergent. Potency, µM, for inactives: max response, negative = inhibition, hits mostly inhibitors. 200,000 tested, 2.3% active. P25779; active = well fitted curve in the direction sought with a large enough effect; inconclusive = small, poorly fitted or top-dose-only effect, or another doubt; inactive = no such curve, though single readings can be large; an effect the other way counts as inactive or inconclusive;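 also: plate controls were enzyme without inhibitor for no effect and buffer without enzyme for full effect; nearly all actives have a fitted effect of over 40% in size; top concentration of the series not given in the record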
Target sequence (P25779 123-467 limits assumed): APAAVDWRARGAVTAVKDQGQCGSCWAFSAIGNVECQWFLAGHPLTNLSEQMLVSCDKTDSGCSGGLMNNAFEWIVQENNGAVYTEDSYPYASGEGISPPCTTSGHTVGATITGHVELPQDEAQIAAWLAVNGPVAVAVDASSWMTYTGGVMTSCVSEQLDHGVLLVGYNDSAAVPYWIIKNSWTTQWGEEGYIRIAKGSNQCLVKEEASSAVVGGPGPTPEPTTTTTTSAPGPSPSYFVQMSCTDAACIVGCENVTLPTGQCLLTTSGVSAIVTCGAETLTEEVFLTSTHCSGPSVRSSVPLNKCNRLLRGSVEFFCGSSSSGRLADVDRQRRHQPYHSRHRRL
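Detergent-free condition (0.00005% Triton X-100) in acetate buffer pH 5.5 with DTT. 1.5 nM enzyme and compound were pre-mixed 15 min, then 2 uM Z-FR-AMC substrate added; reaction progress from fluorescence change between first and third reads (60 s).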
Cruzain inh Det – blocks cruzain activity in presence of Triton detergent; purified cruzain, Z-FR-AMC fluorescence, 0.01% Triton; Potency, µM, without a hit: max response, negative = inhibition, hits mostly inhibitors; P25779; 200,000 tested, 0.43% active; active = well fitted curve in the direction sought with a large enough effect; inconclusive = small, poorly fitted or top-dose-only effect, or another doubt; inactive = no such curve, though single readings can be large; an effect the other way counts as inactive or inconclusive;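 also: plate controls were neutral wells for no effect and buffer without enzyme for full effect; nearly all actives have a fitted effect of over 40% in size; top concentration of the series not given in the record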
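15 min RT preincubation of 1.5 nM cruzain with compound, then 2 uM Z-FR-AMC added; kinetic AMC fluorescence, 60 s delta. Triton X-100 0.01%, pH 5.5.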
StopGo reporter – FMDV 2A StopGo reporter, luciferase signal; human cells with a luciferase reporter of 2A StopGo recoding; control for the full effect not named in the record; Potency, µM (titrated, usually from 57.9 µM), without a hit: top-dose signal change, negative = less light; 410,000 tested, 1.2% active; active = well fitted falling curve with a large enough effect; inconclusive = small, poorly fitted or top-dose-only effect; inactive = no such curve, though single readings can be large or run the other way; tested in HEK293T cells; also: % is scaled to controls: 0 for no effect and ±100 for the full control effect; nearly all actives have a fitted effect of over 45% in size; luciferase light after 4 h
LASV entry inh – Lassa virus entry inhibition. 300,000 tested, 1.2% active. AID 540256. Lassa virus pseudotype entry inhibition, cell reporter; control for the full effect not named in the record. Potency, µM (titrated, usually from 37.9 µM), inactives show at the top dose activity change, negative = inhibition, hits mostly inhibitors; active means well fitted inhibition curve with a large enough effect; inconclusive means small, poorly fitted or top-dose-only effect, or effect the other way; inactive means flat fitted curve, though single readings scatter; tested in HEK293 cells; also: % is scaled to controls: 0 for no effect and ±100 for the full control effect; nearly all actives have a fitted effect of over 50% in size; luciferase read-out
Marburg entry inh – inhibitors of Marburg virus binding or cell entry; Marburg virus pseudotyped entry inhibition, cell reporter; control for the full effect not named in the record; about a third of the inactives were read at about 46 µM; Potency, µM (series often up to 37.8 µM), for the others: at the top dose activity change, negative = inhibition, hits mostly inhibitors; 300,000 tested, 1.8% active; active = well fitted inhibition curve with a large enough effect; inconclusive = small, poorly fitted or top-dose-only effect, or effect the other way; inactive = flat fitted curve, though single readings scatter; tested in HEK293 cells; about a fifth of its hits are not listed in these tables; also: % is scaled to controls: 0 for no effect and ±100 for the full control effect; luciferase read-out
NS1 function inh – influenza NS1 inhibition. S. cerevisiae slowed by influenza A NS1, growth recovery by OD600. Potency, µM (doses to about 46.1 µM), inactives show at the highest dose activity, positive = more growth. 270,000 tested, 0.4% active. AID 2326; also: actives are rising curves; nearly all actives have a fitted effect of over 50% in size
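Recovery from NS1-induced slow growth read by OD600 in budding yeast switched to galactose assay medium (pH 6.0, -URA) at 1:100 dilution. Compound 23 nl per well; the matching strain lacking NS1 serves as control.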
An asterisk follows results filed as active; ? = inconclusive; · = no result given; [ ] = dose if it differs, or a comment. Unless noted, calls follow the shape of the dose curve; as a rule, active means well fitted rising curve with a large enough effect; inconclusive means small, poorly fitted or top-dose-only effect; inactive means no such curve, though single readings can be large or run the other way. Potency is read from the fitted curve at half-maximal effect.

SMILES | RE007 growth inh | SARS PLP yeast | Cruzain inh noDet | Cruzain inh Det | StopGo reporter | LASV entry inh | Marburg entry inh | NS1 function inh
O=C(CN1C(=O)C2CC=CCC2C1=O)NCC(=O)Nc1ccc(F)c(F)c1F (stereo not drawn) | -1% | 0% | · | · | -9% | 19%[46.1 µM] | ? | ·
COc1cccc(/C=N/N2CCOCC2)c1O | -17% | -1% | -16% | -1.2% | 5% | 15%[46.1 µM] | ? | 5%
CC(=O)Nc1ccc(S(=O)(=O)Nc2cc(C)cn(Cc3ccccc3)c2=O)cc1 | 0% | 1% | · | · | -2% | · | ? | 1%
COC(=O)c1cc(S(=O)(=O)N2CCN(C(=O)c3ccco3)CC2)cn1C | -14% | 3% | · | · | -11% | · | · | 2%
COc1ccc(CNC(=O)c2cc3cccc(O)c3oc2=N)cc1 | -1% | 6% | · | · | -13% | ? | -24%[46.1 µM] | 27%
COCCNC(=S)N1CCCN(c2nc3cc(C)ccc3cc2C#N)CC1 | -4% | 0% | · | · | -22% | · | · | -16%
c1ccc(NC(c2ccccc2)c2ccncc2)cc1 (stereo not drawn) | 0% | 0% | · | · | 0% | 2% | 7% | -5%
CCn1ccc(C(=O)Nc2ccccc2Cl)n1 | -23% | -1% | · | · | 19% | · | · | -5%
CCCCn1c(CCCNC(=O)c2ccco2)nc2ccccc21 | -1% | 1% | · | · | -6% | · | · | 16%
CCN1CCN(CC(=O)Nc2nc3ccccc3s2)CC1 | 1% | 0% | · | · | 13% | · | · | 13%
CCc1cccc(NC(=O)CN2C(=O)NC3(CCCCCCC3)C2=O)c1 | 8% | -1% | 5% | -0.7% | 12% | -30% | -19% | -10%
O=C(O)C1CC(=O)N(c2ccc(OCc3ccccc3Cl)cc2)C1 (stereo not drawn) | -4% | -7% | -7% | 2.8% | -10% | -11% | 1% | -1%
Cc1cccn2c(=O)c3cc(C(=O)NCc4ccco4)c(=N)n(CCOCCO)c3nc12 | 2% | 2% | 5% | -4.0% | -23% | -5% | ? | -48%
Cc1cc(C)c(CN2CCC(N3CCC(C(=O)NCC4CCCO4)CC3)CC2)cc1C (stereo not drawn) | -16% | 1% | · | · | -10% | · | · | 4%
CCCc1[nH]nc2c1C(c1ccc(OCCN3CCOCC3)c(OCC)c1)C(C#N)=C(N)O2 (stereo not drawn) | -1% | 12% | -9% | -2.4% | -21% | -19% | 6% | -6%
COc1ccc(CCC(C)Nc2ccc(F)cc2)cc1 (stereo not drawn) | 14% | 6% | -14% | -3.9% | -2% | ? | 2% | 8%
CN(C)c1ccc(C(=O)/C=C/c2ccc(Br)cc2)cc1 | -19% | 10% | -3% | -5.3% | 27% | -2% | 14% | 3%
CCOc1cccc(CN2CCC(Oc3ccc(C(=O)N4CCCC4)cc3)CC2)c1 | 18% | -1% | · | · | -3% | 20%[46.1 µM] | -24%[46.1 µM] | 4%
COc1ccc(NC(=S)NCc2ccccc2)c(OC)c1 | 11% | 1% | · | · | 22% | 24%[46.1 µM] | 19%[46.1 µM] | 1%
Fc1ccc(-c2nnc(CSc3nnc(-c4ccc5c(c4)OCO5)o3)o2)cc1 | 6% | 5% | 2% | -6.3% | 11% | 29% | -2% | -13%
COc1ccc(S(=O)(=O)NCCc2cn3ccsc3n2)cc1 | · | · | 2% | -0.4% | 21% | 3%[46.1 µM] | · | ·
O=[N+]([O-])c1ccc(Cl)c(Cl)c1Cl | 5% | 1% | -4% | 0.7% | -18% | · | · | ·
O=C(Nc1cccc(Cl)c1Cl)c1cc(S(=O)(=O)N2CCCCC2)ccc1F | · | · | -16% | 1.1% | -5% | -1%[46.1 µM] | · | ·
CCn1c(COc2ccccc2)nnc1SCC(=O)C(C)(C)C | 1% | 6% | 11% | 4.8% | ? | -4% | ? | 7%
COc1cc(NC(=O)C(=O)NNC(=O)C2CCCCC2)c(OC)cc1Cl | -11% | -8% | 20% | 1.7% | -11% | 24% | -3% | 8%
COc1ccccc1OCC(=O)NN1Cc2ccccc2C1=N | -24% | -3% | -11% | -0.2% | -21% | 9% | 8% | -1%
CCN(CC)c1nc2c(c(=O)[nH]c(=O)n2C)n1Cc1ccccc1 | -1% | -2% | · | · | -4% | · | · | ?
Cn1nccc1C(=O)Nc1ccc2c(c1)OCCO2 | -19% | -1% | · | · | 3% | ? | -28% | -3%
CCCCc1cc(=O)oc2cc(C)c3c(C(C)(C)C)coc3c12 | · | · | -11% | 3.4% | -11% | 6%[46.1 µM] | 13%[46.1 µM] | ·
COc1ccc(C(=O)NNC2=NC(C)(C)Cc3ccccc32)cc1 | -4% | 2% | 9% | -0.8% | -16% | -1% | 28% | -8%
COc1ccccc1N1CCN(c2ncnc3c2cnn3-c2cc(Cl)ccc2C)CC1 | · | · | 12% | 1.4% | 11µM* | -8%[46.1 µM] | · | ·
O=[N+]([O-])c1cc(/C=N/n2c(-c3cccnc3)n[nH]c2=S)ccc1Cl | -23% | 13% | -10% | -9.1% | 0% | -19% | -33% | -1%
CC1(C)Cc2c(sc(NC(=O)COc3ccc(Cl)cc3)c2C(N)=O)C(C)(C)N1 | 12% | 2% | · | · | 20% | ? | -2%[46.1 µM] | -3%
Cc1c(C(=O)NCc2ccc(Cl)cc2)oc2ccc3c(c12)C(=O)CC(C)(C)O3 | · | · | -8% | -3.8% | 31%[activator] | · | ? | ·
Cc1ccc(-c2nc(CS(=O)CC(=O)NCc3ccc4c(c3)OCO4)c(C)o2)cc1 (stereo not drawn) | -25% | 2% | · | · | -11% | · | · | ?
O=C(CCNC(=O)c1ccccc1Cl)Nc1nc(-c2ccccc2Cl)cs1 | -2% | -9% | ? | -8.0% | -7% | 6%[46.1 µM] | ? | -2%
COc1ccccc1OCCn1ccnc1 | 7% | 1% | · | · | 1% | 6% | 1% | -8%
CCCCn1cnc2c(c(-c3ccccc3)c(-c3ccccc3)n2Cc2ccco2)c1=N | 5% | 0% | · | · | -23% | -20% | -35% | 2%
Cn1c(=O)c2c3c(sc2n2c(SCC(=O)c4ccccc4)nnc12)COC(C)(C)C3 | · | 1% | -1% | 1.2% | · | · | 0% | -6%
O=C(CNC(=O)c1ccc(Cl)cc1Cl)OCN1C(=O)c2ccccc2C1=O | 9% | 2% | · | · | 0% | 2% | ? | ·
O=C(Cn1c(=O)n(Cc2ccc3c(c2)OCO3)c(=O)c2ccccc21)Nc1cccc(Cl)c1 | · | · | -24% | -5.2% | -6% | 3%[46.1 µM] | 6%[46.1 µM] | ·
Cc1csc(SCc2nc3scc(-c4ccccc4)c3c(=O)[nH]2)n1 | -1% | -1% | · | · | ? | 9% | -15% | 2%
CCc1ccc(NCc2cc3cc4c(cc3n(CC(=O)Nc3ccc(F)cc3)c2=O)OCCO4)cc1 | · | · | 20µM* | -7.9% | -11% | -21%[46.1 µM] | · | ·
CCC1=Nc2cc(C(=O)N3CCCCC3)ccc2Sc2ccc(C)cc21 | 5% | 0% | · | · | -15% | · | · | -9%
Cc1nn(-c2ccccc2)c2c1C(=O)N(Cc1ccccc1)C(=O)C(C)(C)C2 | 8% | 0% | -2% | -1.2% | 0% | -11% | ? | -17%
Cn1ccsc1=NC(=O)c1ccc(S(=O)(=O)C(F)F)cc1 | -6% | -3% | · | · | 23% | 10%[46.1 µM] | 5%[46.1 µM] | 1%
O=C(CC(=O)c1ccccc1)Nc1cc(C(F)(F)F)ccc1Cl | -7% | 21% | -10% | 3.9% | -8% | -15% | -22% | 4%
Nc1cc(=O)[nH]n1C1CCCC1 | 12% | 2% | · | · | -9% | 9% | -1%[46.1 µM] | ·
CC(C)CC(C(=O)OCC(=O)c1c(N)n(C)c(=O)n(C)c1=O)N1C(=O)c2ccccc2C1=O (stereo not drawn) | 1% | 7% | ? | -12% | ? | -4% | -16% | -27%
Cc1n[nH]c(C)c1S(=O)(=O)N1CCCCCC1 | 22% | 15% | -3% | -1.1% | 5% | 21% | 14% | -3%
Cc1cc(C)c(S(=O)(=O)NC2CC(C)(C)NC(C)(C)C2)cc1Br | -4% | 3% | · | · | 11% | · | · | -4%
O=C(Nc1n[nH]c(C(F)(F)F)n1)C1CC1 | 3% | 0% | · | · | 7% | 3% | -3%[46.1 µM] | -5%
CCOC(=O)c1cc(S(=O)(=O)NCCc2ccccc2)cn1C | 10% | 1% | · | · | 55%[activator] | -17%[46.1 µM] | 19%[46.1 µM] | 3%
CCCC(C(=O)O)n1c(O)c(C=C2N=c3ccccc3=N2)sc1=S (stereo not drawn) | -3% | 1% | · | · | 3% | 3%[46.1 µM] | ? | 3%
Cc1ccc(S(N)(=O)=O)cc1NC(=O)/C=C/c1cccs1 | -8% | -3% | 4% | -0.6% | 4% | 15% | 1%[46.1 µM] | -11%
Cc1ccc2sc(N(CCCN(C)C)C(=O)c3ccc(S(=O)(=O)N4CCc5ccccc5C4)cc3)nc2c1C | 5% | 3% | · | · | -4% | 1% | ? | ·
Cc1ccc2c(=O)cc(C(=O)Nc3ccc(S(=O)(=O)N4CCC(C)CC4)cc3)oc2c1C | · | · | -15% | -1.8% | -3% | 0%[46.1 µM] | ? | ·
CCCCn1c(N)c(N(CCOC)C(=O)c2ccc3c(c2)OCCO3)c(=O)[nH]c1=O | 0% | 0% | · | · | -2% | 21% | -14% | ·
COc1ccc(CCNC(=O)CCc2c(C)nc3c(c(C)nn3-c3ccc(C)cc3)c2C)c(OC)c1 | · | · | -13% | 0.2% | -19% | ? | 23%[46.1 µM] | ·
CC(=O)NC1=NN(C(C)=O)C(C)(CS(=O)(=O)c2ccc3ccccc3c2)S1 (stereo not drawn) | 25% | -7% | -12% | -5.7% | 9% | -5% | 12% | 5%

Additional records follow:
SMILES | RE007 growth inh | SARS PLP yeast | Cruzain inh noDet | Cruzain inh Det | StopGo reporter | LASV entry inh | Marburg entry inh | NS1 function inh
Cc1ccc2sc(-c3ccc(N)cc3)nc2c1 | · | · | ? | 36%[activator] | ? | ? | ? | ·
CC(=O)c1ccc(OCc2cc(C(=O)N(C)Cc3ncc(C)[nH]3)no2)cc1 | -11% | ? | · | · | -4% | 2% | 5% | -3%
O=c1[nH]ncn1-c1ccc(Br)cc1 | -11% | -1% | · | · | -9% | 3%[46.1 µM] | ? | 5%
COC(=O)CCN(C(=O)c1cc(OC)c(OC)c(OC)c1)c1ccccn1 | 4% | 7% | 8% | 2.2% | · | -7% | 9% | 8%
C=CCNC(=S)Nc1cccc(N)c1 | 14% | 3% | · | · | -2% | · | · | 3%
